Bfl-1 A1 inh – inhibitors of the anti-apoptotic protein A1, read as caspase activation | MEF A1-2A-BIM cells, Caspase-Glo 3/7 luminescence, 3 h; percent of clofoctol response, vehicle zero | caspase activation, % (no concentration beside the values) | 0.066% of 330,000 active;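 active = over half of replicate activation scores above 10%, or exactly half above 10 with the replicate mean above 10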;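 note: wells of about 30 µL received 50 nL stock; many hits fall short of the cut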
Ecoli growth – inhibitors of Escherichia coli growth; 0.21% of 330,000 active; OD600 absorbance (concentration not given with the values); OD600, 23 h; stronger effect = lower value;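 active = OD600 absorbance below the run mean of sample wells minus 3.6 SD, in any replicate, cut at about 0.56 in these data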;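 note: stock transfer was 300 nL into about 60 µL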
T cruzi repl – T. cruzi replication inhibition; T. cruzi beta-gal in NIH3T3, luminescence, 90 h; inhibition, % (concentration not given with the values); 1.4% of 300,000 active;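 active = mean inhibition across valid replicates above about 55%, limit read from the data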;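 note: signal also drops with host cell toxicity which is not excluded here; 0% = plate median of DMSO wells and 100% = zero luminescence signal; higher percent means less beta-gal luminescence so fewer parasites; stock transfer was 50 nL into about 50 µL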
rRNA inh HTS – selective bacterial rRNA inhibition in E. coli; E. coli WT GFP vs humanized-ribosome RFP mutants, fluorescence, 24 h; stronger effect = lower value; DMSO median 0, no signal -100; GFP signal change (wild-type ribosome), % (no concentration beside the values); 1.6% of 350,000 active; AID 720706;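 active = significant combined selectivity score with lowered wild-type GFP, culture density cut under 30%, mutant RFP and density less affected; inactive = any of these conditions unmet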; note: one replicate is shown; some compounds called inactive have numbers as strong as hits
FGF22 binding – binders of recombinant human FGF22 by thermal shift; Q9HCT0; SYPRO orange fluorescence; percent of sucrose octasulfate shift, DMSO zero; calls only at 9.99 µM; 1.5% of 340,000 active; AID 651658;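 active = melting point raised past a set limit in the mean and every replicate; three in four hits are not shown here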
Target sequence (Q9HCT0 whole entry, looked up): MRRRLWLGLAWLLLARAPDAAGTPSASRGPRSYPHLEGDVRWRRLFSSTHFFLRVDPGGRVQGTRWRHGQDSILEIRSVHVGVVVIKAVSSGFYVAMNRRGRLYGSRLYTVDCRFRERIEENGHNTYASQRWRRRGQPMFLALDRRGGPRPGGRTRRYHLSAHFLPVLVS
AF4-AF9 inh – inhibitors of human MLL-AF4/AF9 interaction | AlphaScreen, biotin-AF4 peptide binding to FLAG-AF9 | 0.47% of 350,000 active | inhibition, % at 10 µM;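 active = every replicate reaching a set inhibition limit, whatever the replicate mean, cut at about 25% in these data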;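 note: 0% = plate neutral control median and 100% = total signal loss; the record names both 10 and 1 µM as test concentration; the first replicate is given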
Target sequence (P42568 whole entry, looked up): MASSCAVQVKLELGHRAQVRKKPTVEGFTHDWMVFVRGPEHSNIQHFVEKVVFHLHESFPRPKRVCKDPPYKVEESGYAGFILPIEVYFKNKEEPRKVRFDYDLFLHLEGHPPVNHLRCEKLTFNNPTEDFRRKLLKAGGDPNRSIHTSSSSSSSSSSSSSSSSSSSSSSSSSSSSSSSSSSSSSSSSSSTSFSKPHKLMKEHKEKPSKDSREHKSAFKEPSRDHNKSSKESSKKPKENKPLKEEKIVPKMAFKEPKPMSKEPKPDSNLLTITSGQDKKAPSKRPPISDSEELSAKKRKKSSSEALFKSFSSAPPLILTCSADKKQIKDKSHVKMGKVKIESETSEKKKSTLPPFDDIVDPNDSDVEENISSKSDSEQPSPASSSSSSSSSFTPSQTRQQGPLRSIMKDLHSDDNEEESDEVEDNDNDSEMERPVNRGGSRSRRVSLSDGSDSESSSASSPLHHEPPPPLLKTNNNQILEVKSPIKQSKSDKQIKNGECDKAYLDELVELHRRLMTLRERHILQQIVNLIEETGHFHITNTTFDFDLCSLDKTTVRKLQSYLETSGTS
Beta cell apopt – beta cell apoptosis inhibition | INS-1E cytokine-induced death, ATP luminescence, 48 h; percent of positive-control rescue, neutral wells zero | protection from apoptosis, % (test concentration not listed) | 0.8% of 300,000 active | AID 435005;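 active = all replicates at 75% or more, or half of them and the mean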;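 note: 0% = cytokine-treated negative control wells and 100% = positive control rescue; higher means more ATP so stronger rescue from cytokine killing; wells of about 40 µL received 100 nL stock; the first replicate is given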
UCH37 inh – human UCH37 deubiquitinating enzyme inhibition. purified proteasome/UCH37, Ub-AMC cleavage fluorescence. inhibition, % (test concentration not listed). 0.33% of 330,000 active;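 active = mean of two replicates above 20%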;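 note: 0% = compound-free wells with enzyme and 100% = wells lacking proteasome; stock transfer was 100 nL into about 20 µL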
Target sequence (Q9Y5K5 whole entry, looked up): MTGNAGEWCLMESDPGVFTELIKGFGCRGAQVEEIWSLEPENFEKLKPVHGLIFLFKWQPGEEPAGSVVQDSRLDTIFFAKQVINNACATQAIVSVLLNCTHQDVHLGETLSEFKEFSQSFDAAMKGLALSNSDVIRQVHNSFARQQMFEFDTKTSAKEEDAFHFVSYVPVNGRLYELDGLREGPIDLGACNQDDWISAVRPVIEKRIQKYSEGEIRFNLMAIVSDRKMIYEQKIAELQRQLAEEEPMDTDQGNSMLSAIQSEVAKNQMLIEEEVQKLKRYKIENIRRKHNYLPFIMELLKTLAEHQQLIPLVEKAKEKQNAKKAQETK
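Material: human UCH37 enzyme supplied as purified proteasome complex. Measure: % inhibition of Ub-AMC cleavage fluorescence. Medium: pH 7.4 Tris-HCl (50 mM) with ovalbumin, ATP-MgCl2, DTT. Times: 30 min preincubation with enzyme, 25 min cleavage at room temperature. Detection: AMC fluorescence intensity at 355/460 nm.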
rRNA inh HTS OD600 – also measured in rRNA inh HTS; calls as there; OD600 change, %; measured here: OD600 growth;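 optical density of the mix in the first replicate; 0 = DMSO median and -100 = no signal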
rRNA inh HTS RFP – recorded beside rRNA inh HTS, whose call it bears; RFP signal change, %; measured here: RFP humanized mutant strains;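 first replicate; 0 = DMSO median and -100 = no signal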
An asterisk follows results filed as active; i = inactive; nt = no result given. Some of the compounds tested; rates above refer to the full screens.

SMILES	Bfl-1 A1 inh	Ecoli growth	T cruzi repl	rRNA inh HTS	rRNA inh HTS OD600	rRNA inh HTS RFP	FGF22 binding	AF4-AF9 inh	Beta cell apopt	UCH37 inh
Oc1ccc(-c2cn3cc(C(F)(F)F)ccc3n2)cc1	-6.3	0.67	-8	nt	nt	nt	nt	nt	3	-72
NC(=O)c1ccsc1NC(=O)CN1CCN(S(=O)(=O)c2ccccc2C(F)(F)F)CC1	nt	0.7	nt	-30	-40	-7.8	i	2.0	nt	3.2
Cc1cc(NC(=O)CSc2nc3ccccc3c(=O)n2CCCC(=O)NCc2ccco2)n[nH]1	-0.4	0.68	-11	nt	nt	nt	nt	nt	-32	3.0
COc1ccccc1CNc1ccc2nnc(CCNC(=O)c3ccccc3)n2n1	0.3	0.66	1	3	-1	-0.8	i	-2.7	-5	-0.8
CCN1CCN(C(=O)C2=CC(c3ccc(C)cc3)=NS(=O)(=O)N2C)CC1	0.1	0.75	-26	5	5	-3.4	i	0.3	-7	6.8
CC1CC(C)CN(CCCNC(=O)c2c(O)nc3ccccn3c2=O)C1 (centres undefined)	-0.3	0.66	-1	7	4	-2.9	i	-4.7	-3	-42
COc1cc(NC(=O)C2CCCC2)c(OC)cc1Cl	0.2	0.69	-9	nt	nt	nt	nt	nt	-8	2.9
COc1ccc(OC)c(-c2c3c([nH]c(=S)c2C#N)CCCC3)c1	0.3	0.7	-7	8	7	-0.9	i	-7.8	-11	1.3
CCn1nc(NC(=O)c2ccncc2)c2cc3ccc(C)cc3nc21	0.6	0.73	0	nt	nt	nt	nt	nt	-3	-61
Cn1nccc1CNC(=O)c1c(Cl)cnn1C	0.2	0.69	-8	6	9	8.7	i	-2.3	-10	4.5
Cn1cccc1C(=O)N/N=C/c1c(Cl)cccc1Cl	-6.5	nt	-11	10	15	1.1	i	1.7	-1	nt
CC(=O)NC1=NN(C(C)=O)C(C)(c2ccc3ccccc3c2)S1 (centres undefined)	0.3	0.68	11	-9	-13	-8.0	i	-10	-4	5.5
Cc1cc(=O)n2[nH]c(SCc3ccccc3Cl)nc2n1	-5.8	0.67	-15	-4	-4	5.2	i	-3.7	2	-0.2
Cn1c(=O)oc2cc(S(=O)(=O)Nc3ccc4c(c3)OCO4)ccc21	0.0	0.68	-15	nt	nt	nt	nt	nt	6	1.0
Cc1nn(-c2ccccc2)c2nc(N)c(C(N)=O)cc12	1.7	0.69	-3	5	5	-3.6	i	-0.4	nt	-225
Clc1ccccc1CN1CCSCC1	-0.2	0.67	-10	15	14	2.8	i	-0.1	0	2.4
O=C(NC(=S)Nc1cccc2c(O)cccc12)c1ccccc1[N+](=O)[O-]	0.2	0.7	3	14	11	5.0	i	-0.2	10	3.3
COc1cc(NC(=O)c2[nH]c(C)c(C(C)=O)c2C)cc(OC)c1OC	0.1	0.68	2	-5	0	1.3	i	4.4	-8	4.7
Cc1noc(C)c1CSc1nc2sc(C)c(C)c2c(=O)n1C1CCCC1	0.1	0.72	25	5	15	-2.2	nt	nt	9	4.9
O=C(O)C1CC(=O)N(c2ccc(F)c(F)c2)C1 (centres undefined)	0.7	0.65	-7	nt	nt	nt	nt	nt	nt	0.7
c1ccc(COC2CCCN(Cc3nc(-c4cnccn4)no3)C2)cc1 (centres undefined)	0.2	0.73	-7	12	-10	-0.9	i	0.3	-6	4.1
COc1ccc(-c2csc3nc(C(C)C)oc(=O)c23)cc1OC	-0.4	0.71	-1	-15	-10	-17	nt	0.3	nt	2.3
COc1ccc(CCN=C(N)NS(=O)(=O)c2ccc(OC)cc2)cc1	0.0	0.68	-12	nt	nt	nt	nt	nt	-6	0.3
CCCCn1c(N)c(N(CC(C)C)C(=O)c2ccc(Br)o2)c(=O)[nH]c1=O	-0.7	0.68	-6	12	5	0.4	i	1.5	-7	3.1
Cc1ccc(C)c(NC(=O)CN(C)C(=O)c2ccc3ncsc3c2)c1	nt	0.68	nt	0	6	-2.7	i	0.6	nt	-0.2
CCC(=O)NC1(C(F)(F)F)C(=O)Nc2c1c(=O)[nH]c(=O)n2CC(C)C (centres undefined)	-1.2	0.67	-10	14	2	-1.8	i	4.4	-4	5.5
CCCCN(CC)C(=O)Cn1cnc2sc(C)c(S(=O)(=O)N3CCC(C)CC3)c2c1=O	0.3	0.69	10	-5	-4	1.2	i	0.7	-5	3.9
O=C(NCCc1ccccc1)C(=O)NCC1OCCN1S(=O)(=O)c1ccc(Cl)cc1 (centres undefined)	1.0	0.65	-3	7	4	-3.1	i	-27	1	2.2
O=C(Nc1nccs1)c1cncc(Br)c1	-0.3	0.7	-8	2	4	-3.1	i	-0.2	-2	2.4
Cc1cc(C)c(CNC(=O)c2cc(C3CC3)nc3c2cnn3C(C)C)c(=O)[nH]1	-0.2	0.69	nt	0	0	-1.8	i	1.7	-3	2.3
O=C(NCC1CCCO1)C(=O)NCC(c1ccco1)N1CCN(c2ccccc2F)CC1 (centres undefined)	-0.1	0.69	-23	nt	nt	nt	nt	nt	-3	2.4
CN(C)S(=O)(=O)c1ccc(C(=O)Nc2ccccn2)cc1	-0.3	0.68	-8	3	4	-3.3	i	-2.6	0	-2.1
CCC1CCCCN1C(=S)Nc1ccc(S(=O)(=O)Nc2ncccn2)cc1 (centres undefined)	1.1	0.68	-9	7	14	-2.3	i	-0.8	1	2.7
CCCN=C(C)c1c(-c2ccccc2)[nH]n(-c2nc3ccccc3s2)c1=O	0.5	0.65	33	nt	nt	nt	nt	nt	1	-3.4
CCOC(=O)c1c(NC(=O)CN2CCCCC2)sc2c1CCC(C=O)=C2Cl	1.0	0.74	8	nt	nt	nt	nt	nt	-1	3.4
COc1cc(NC(=O)Cc2ccccc2)nc(OC)n1	0.6	0.67	-22	nt	nt	nt	nt	nt	-4	0.4
CC1CCCN(c2ccc(C(=O)NCc3ccco3)cc2[N+](=O)[O-])C1 (centres undefined)	-0.1	0.69	21	-11	-1	-3.6	i	6.6	-7	4.3
Cc1c(NC(=O)CN(C)CC(=O)Nc2ccc(F)c(F)c2F)c(=O)n(-c2ccccc2)n1C	0.9	nt	nt	5	6	-0.8	i	-2.0	-5	nt
Cc1cccc(C(=O)NCC(=O)OCC(=O)NCCNC(=O)COC(=O)CNC(=O)c2cccc(C)c2)c1	-1.4	0.69	-8	7	11	2.1	i	0.0	0	4.1
CC1CCCCN1C(=O)c1cc2ccccc2cc1O (centres undefined)	0.2	0.7	3	1	-17	4.4	i	2.1	-6	1.5
CCOC(=O)C1CCCN(C(=O)COc2ccc(S(=O)(=O)N3CCOCC3)cc2)C1 (centres undefined)	1.3	0.69	nt	6	8	-0.8	i	-0.7	3	0.2
O=C1CC2CS(=O)(=O)CC2N1C1CCCCC1 (centres undefined)	0.6	0.74	-6	3	1	-0.5	i	-3.6	-1	3.8
COc1cc(C2C(C(=O)c3ccco3)=C(O)C(=O)N2Cc2ccccc2)ccc1O (centres undefined)	-0.4	0.69	-1	-5	-2	-2.1	i	-0.9	3	9.1
CCOC(=O)c1ccc(NC(=O)C2CCN(S(=O)(=O)c3ccccc3)CC2)cc1	-0.1	0.78	-1	-14	-32	-1.5	i	5.4	1	5.3
CCOC(=O)N1CCC(NC(=O)c2sc3nc4n(c(=O)c3c2C)CCCC4)CC1	1.1	0.68	5	nt	nt	nt	nt	nt	nt	1.1
CCOc1ccccc1OCC(=O)Nc1ccc2[nH]c(=O)[nH]c2c1	0.9	0.65	nt	-7	-6	-3.5	i	-0.1	2	0.3
COCCn1c(C)cc(C(=O)CSc2cc(C)c3ccc(OC)cc3n2)c1C	-0.1	0.73	-5	nt	nt	nt	nt	nt	-1	3.3
CNC(=O)/C(C#N)=C/c1ccc(-c2ccc(OC)cc2[N+](=O)[O-])o1	-0.5	0.72	-4	nt	nt	nt	nt	nt	4	2.7

No new results follow: two of the compounds above.
SMILES	Bfl-1 A1 inh	Ecoli growth	T cruzi repl	rRNA inh HTS	rRNA inh HTS OD600	rRNA inh HTS RFP	FGF22 binding	AF4-AF9 inh	Beta cell apopt	UCH37 inh
CC1CCCN(c2ccc(C(=O)NCc3ccco3)cc2[N+](=O)[O-])C1 (centres undefined)	-0.1	0.69	21	-11	-1	-3.6	i	6.6	-7	4.3
Cc1c(NC(=O)CN(C)CC(=O)Nc2ccc(F)c(F)c2F)c(=O)n(-c2ccccc2)n1C	0.9	nt	nt	5	6	-0.8	i	-2.0	-5	nt

The list continues:
SMILES	Bfl-1 A1 inh	Ecoli growth	T cruzi repl	rRNA inh HTS	rRNA inh HTS OD600	rRNA inh HTS RFP	FGF22 binding	AF4-AF9 inh	Beta cell apopt	UCH37 inh
CCOc1ccc2nc(NC(=O)CN3CCN(c4ccccn4)CC3)sc2c1	0.0	0.73	14	nt	nt	nt	nt	nt	-4	-2.4
CCOC(=O)c1nn(-c2ccc(Br)cc2)cc1C(=O)c1cccc2ccccc12	0.1	0.75	5	nt	nt	nt	nt	nt	-2	-0.3
Cc1cc(NC(=O)CSc2nc(C)c(C)c(=O)[nH]2)no1	1.3	0.68	-1	5	1	-1.4	i	0.4	1	6.4
CN(C)S(=O)(=O)n1cnc([C@@H]2[C@H]3C(=O)OC[C@@H]3C[C@@]23N=CN(Cc2ccccc2)C3=O)c1	-0.7	nt	nt	-3	3	-3.7	i	2.2	-1	-1.2

11 entries from above, ordered by formula weight, low to high:
SMILES	Bfl-1 A1 inh	Ecoli growth	T cruzi repl	rRNA inh HTS	rRNA inh HTS OD600	rRNA inh HTS RFP	FGF22 binding	AF4-AF9 inh	Beta cell apopt	UCH37 inh
O=C1CC2CS(=O)(=O)CC2N1C1CCCCC1 (centres undefined)	0.6	0.74	-6	3	1	-0.5	i	-3.6	-1	3.8
CC1CCCCN1C(=O)c1cc2ccccc2cc1O (centres undefined)	0.2	0.7	3	1	-17	4.4	i	2.1	-6	1.5
CNC(=O)/C(C#N)=C/c1ccc(-c2ccc(OC)cc2[N+](=O)[O-])o1	-0.5	0.72	-4	nt	nt	nt	nt	nt	4	2.7
CCOc1ccc2nc(NC(=O)CN3CCN(c4ccccn4)CC3)sc2c1	0.0	0.73	14	nt	nt	nt	nt	nt	-4	-2.4
COCCn1c(C)cc(C(=O)CSc2cc(C)c3ccc(OC)cc3n2)c1C	-0.1	0.73	-5	nt	nt	nt	nt	nt	-1	3.3
COc1cc(C2C(C(=O)c3ccco3)=C(O)C(=O)N2Cc2ccccc2)ccc1O (centres undefined)	-0.4	0.69	-1	-5	-2	-2.1	i	-0.9	3	9.1
CCOC(=O)c1ccc(NC(=O)C2CCN(S(=O)(=O)c3ccccc3)CC2)cc1	-0.1	0.78	-1	-14	-32	-1.5	i	5.4	1	5.3
CCOC(=O)C1CCCN(C(=O)COc2ccc(S(=O)(=O)N3CCOCC3)cc2)C1 (centres undefined)	1.3	0.69	nt	6	8	-0.8	i	-0.7	3	0.2
CCOC(=O)c1nn(-c2ccc(Br)cc2)cc1C(=O)c1cccc2ccccc12	0.1	0.75	5	nt	nt	nt	nt	nt	-2	-0.3
CN(C)S(=O)(=O)n1cnc([C@@H]2[C@H]3C(=O)OC[C@@H]3C[C@@]23N=CN(Cc2ccccc2)C3=O)c1	-0.7	nt	nt	-3	3	-3.7	i	2.2	-1	-1.2
Cc1cccc(C(=O)NCC(=O)OCC(=O)NCCNC(=O)COC(=O)CNC(=O)c2cccc(C)c2)c1	-1.4	0.69	-8	7	11	2.1	i	0.0	0	4.1
